Rango complex inh: inhibitors of Rango-importin beta complex formation; Q14974; Rango CFP/YFP FRET sensor + importin beta, 45 min; Potency, µM (series often up to 92.2 µM), inactives show at the highest dose inhibition of complex formation; actives 0.031% (n = 340,000); AID 540263; active = rising FRET ratio curve, often small or poorly fitted; inconclusive = mostly compound fluorescence or quenching in the first reads; inactive = flat curves in all reads;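 further: potency means the concentration at half of the fitted maximal effect; 0% = DMSO wells and 100% = buffer wells lacking importin beta; nearly all actives have a fitted effect of over 15% in size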
Target sequence (Q14974 whole entry, looked up): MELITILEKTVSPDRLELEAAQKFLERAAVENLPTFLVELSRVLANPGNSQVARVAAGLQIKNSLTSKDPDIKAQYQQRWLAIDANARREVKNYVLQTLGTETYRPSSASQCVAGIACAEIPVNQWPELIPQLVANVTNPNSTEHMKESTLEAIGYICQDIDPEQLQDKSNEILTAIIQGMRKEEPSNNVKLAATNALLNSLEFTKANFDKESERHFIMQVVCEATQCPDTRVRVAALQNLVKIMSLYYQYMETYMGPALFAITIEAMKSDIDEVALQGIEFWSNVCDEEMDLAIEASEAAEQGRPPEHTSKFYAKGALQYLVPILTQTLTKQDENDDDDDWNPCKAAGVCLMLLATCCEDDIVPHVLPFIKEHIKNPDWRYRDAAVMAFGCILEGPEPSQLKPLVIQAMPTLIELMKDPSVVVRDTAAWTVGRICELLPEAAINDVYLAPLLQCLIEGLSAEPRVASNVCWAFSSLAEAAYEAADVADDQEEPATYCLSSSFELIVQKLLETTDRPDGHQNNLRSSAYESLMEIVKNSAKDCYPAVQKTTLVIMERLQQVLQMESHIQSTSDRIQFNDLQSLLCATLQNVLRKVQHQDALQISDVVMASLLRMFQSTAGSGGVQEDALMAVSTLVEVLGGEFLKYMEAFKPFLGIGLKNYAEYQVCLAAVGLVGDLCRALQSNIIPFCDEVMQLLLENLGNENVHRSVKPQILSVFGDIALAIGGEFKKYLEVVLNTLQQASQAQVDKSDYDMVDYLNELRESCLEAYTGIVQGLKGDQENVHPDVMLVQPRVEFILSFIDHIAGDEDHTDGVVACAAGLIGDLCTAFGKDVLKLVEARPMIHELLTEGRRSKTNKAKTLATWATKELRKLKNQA
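FRET biosensor (snurportin 1 IBB flanked by EYFP and cerulean), 50 nM, with compound 5 min, then 0.125 microM importin beta in PBS, 1 mM DTT, 0.02% Tween-20, 0.1% BSA. CFP/YFP ratio read after 45 min at room temperature; pre-read flags interference.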
miR-21 FLuc: miR-21 reporter, rising signal; HeLa miR-21 FLuc reporter, luciferase, 48 h; Potency, µM (series often up to 38.3 µM), without a hit: top-dose reporter change, positive = more light; 340,000 tested, under 10 active; AID 2288; active = well fitted rising curve with a large enough effect; inconclusive = small, poorly fitted or top-dose-only effect; inactive = no such curve, though single readings can be large or run the other way;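 further: % of control where 0% means no effect; miR-21 action dims this reporter so a rising signal means less miR-21 action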
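Using DMEM plus 10% FBS, HeLa miR-21-FLuc cells are incubated with test compounds (final up to about 40uM) for 48 hours; firefly luciferase signal is then imaged following reagent-mediated lysis.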
Rango release inh: inhibitors of RanGTP-induced Rango-importin beta complex dissociation; O95149+P62826; Biochemical FRET Rango-importin beta, RanGTP-induced dissociation; Potency, µM (series often up to 46.1 µM), inactives show at the top dose activity change, negative = inhibition; actives 0.071% (n = 340,000); active means falling FRET ratio curve, often poorly fitted, with flat reads before Ran was added; inconclusive means other falling curves, or compound fluorescence or quenching; inactive means flat or rising ratio curve;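 further: potency means the concentration at half of the fitted maximal effect; % of control where 0% means no effect; nearly all actives have a fitted effect of over 45% in size; -100% = wells without RanGTP and RCC1; the record marks most hits as doubtful in a second field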
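Compounds sat 5 min at room temperature with 0.1 uM Rango biosensor plus 0.25 uM importin beta, then FRET pre-read. RanGTP-RCC1 (0.6 uM Ran, 2mM GTP, 0.2 uM RCC1) added for 45 min, and the CFP/YFP post-read measured blocked complex dissociation.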
GLA inh pH 4.5: blocks human alpha-galactosidase A at pH 4.5; P06280; purified enzyme, 4-MU-alpha-Gal fluorescence, pH 4.5; activity change, negative = inhibition, % at 105 µM; 230,000 tested, under 10 active; AID 1467; inconclusive = small, poorly fitted or top-dose-only inhibition, or a rising curve; inactive = flat fitted curve, though single readings scatter; no compound was filed as active;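 further: 0% = full activity with enzyme and -100% = basal without enzyme; dose as in the result columns while the protocol names 77 µM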
Starred values were filed as active, the others as inactive; u = inconclusive; x = no result given. These rows are one share of the data; rates above refer to the full screens.

SMILES	Rango complex inh	miR-21 FLuc	Rango release inh	GLA inh pH 4.5
O=C(/C=C/Nc1ccccc1)C(F)(F)F	5.3%	-3.8%	-20.8%	4.2
CN(C)CCN(Cc1ccco1)S(=O)(=O)c1csc(C(N)=O)c1	-3.7%	-0.5%	0.5%	x
O=c1c2ccccc2ncn1Cc1ccc(Cl)cc1	-3.5%	-5.6%	-0.1%	0.1
Cc1ccc(NC(=O)Nc2ccc3c(c2)OCO3)c(Br)c1	1.9%	-30.3%	17.7%	x
Cc1[nH]c2ccccc2c1C(=O)CN1CC(C)OC(C)C1 (stereo not given)	2.2%	-10.7%	-4.5%	-7.7
COc1ccc2nc(N/C(=N/S(=O)(=O)c3cccs3)c3ccccc3Cl)sc2c1	0.3%	-13.6%	0.0%	u
COc1ccc(N2CCN(C(=O)NC3CCCCC3)CC2)cc1	-4.8%	-11.0%	-14.9%	-2.2
COc1cc2c(cc1OC)C(c1cc3cc4c(cc3[nH]c1=O)OCO4)N(C(=O)C1CC1)CC2 (stereo not given)	-2.1%	-8.9%	4.6%	0.2
COc1ccc2nc(-c3ccc(Cl)cc3)cc(C(=O)O)c2c1	0.5%	-36.8%	2.8%	23.9
CCOc1ccc(N(C(=O)c2ccc(S(=O)(=O)N3CCCC3)cc2)C2C=CS(=O)(=O)C2)cc1 (stereo not given)	-6.9%	3.3%	-1.7%	x
COc1ccc(-c2oc3cc(OC(C)=O)cc(OC(C)=O)c3c(=O)c2OC)cc1	-4.3%	x	3.7%	x
O=C(O)C1CCCCC1C(=O)Nc1cc(Cl)ccc1Cl (stereo not given)	-1.1%	-2.4%	-3.5%	5.8
O=C(COc1cc2oc(=O)c3c(c2cc1Cl)CCC3)NCc1ccccn1	-2.3%	-0.6%	-2.9%	x
CC(C)c1ccc(OCC(=O)NN2C(=O)c3ccccc3C2=O)c(Br)c1	-2.3%	0.0%	-19.1%	x
O=C(CCNC(=O)c1ccc(Cl)cc1)Nc1ccncc1	-5.3%	x	-9.1%	x
CSCCC(NS(=O)(=O)/C=C/c1ccccc1)C(=O)NCCc1ccc(S(N)(=O)=O)cc1 (stereo not given)	-1.0%	-2.0%	16.1%	6.1
CCOC(=O)C1=C(c2ccccc2)NC(=O)NC1c1ccc(OC)c(OC)c1 (stereo not given)	-4.3%	0.0%	-8.9%	-0.4
Cc1cc(C(C)(C)C)oc1C(=O)Nc1ccc(CC(=O)O)cc1	0.3%	9.2%	5.2%	2.9
CCC1(C)Cc2c(sc3nc(SC)n(Cc4ccccc4)c(=O)c23)CO1 (stereo not given)	5.4%	-7.6%	-4.5%	4.9
Cc1ccc(NC(=O)CSCC(=O)NCc2ccco2)cc1	7.2%	x	12.3%	x

Taken from the listing, seven compounds:
SMILES	Rango complex inh	miR-21 FLuc	Rango release inh	GLA inh pH 4.5
COc1ccc(-c2oc3cc(OC(C)=O)cc(OC(C)=O)c3c(=O)c2OC)cc1	-4.3%	x	3.7%	x
O=C(O)C1CCCCC1C(=O)Nc1cc(Cl)ccc1Cl (stereo not given)	-1.1%	-2.4%	-3.5%	5.8
O=C(COc1cc2oc(=O)c3c(c2cc1Cl)CCC3)NCc1ccccn1	-2.3%	-0.6%	-2.9%	x
CC(C)c1ccc(OCC(=O)NN2C(=O)c3ccccc3C2=O)c(Br)c1	-2.3%	0.0%	-19.1%	x
O=C(CCNC(=O)c1ccc(Cl)cc1)Nc1ccncc1	-5.3%	x	-9.1%	x
CSCCC(NS(=O)(=O)/C=C/c1ccccc1)C(=O)NCCc1ccc(S(N)(=O)=O)cc1 (stereo not given)	-1.0%	-2.0%	16.1%	6.1
CCOC(=O)C1=C(c2ccccc2)NC(=O)NC1c1ccc(OC)c(OC)c1 (stereo not given)	-4.3%	0.0%	-8.9%	-0.4

Back to the main list, starting 3 compounds before the break.
SMILES	Rango complex inh	miR-21 FLuc	Rango release inh	GLA inh pH 4.5
Cc1cc(C(C)(C)C)oc1C(=O)Nc1ccc(CC(=O)O)cc1	0.3%	9.2%	5.2%	2.9
CCC1(C)Cc2c(sc3nc(SC)n(Cc4ccccc4)c(=O)c23)CO1 (stereo not given)	5.4%	-7.6%	-4.5%	4.9
Cc1ccc(NC(=O)CSCC(=O)NCc2ccco2)cc1	7.2%	x	12.3%	x
C=CCSc1nccc(=O)[nH]1	-2.3%	-2.9%	7.6%	1.8
C#CCOCCOCCOCCNc1nc(N2CCN(C(=O)[C@H]([C@@H](C)CC)n3cc([C@@H](N)CO)nn3)CC2)nc(N2CCN(C(=O)[C@H](Cc3cc4ccccc4[nH]3)n3cc([C@@H](N)Cc4ccc(O)cc4)nn3)CC2)n1	x	-1.1%	x	-24.0
Cc1ccc(-c2nnc3sc(-c4ccncc4)nn23)cc1	2.1%	-21.3%	1.5%	3.5
O=C(Nc1ncc(Cc2cccc(C(F)(F)F)c2)s1)c1ccc(-c2cccc([N+](=O)[O-])c2)o1	-4.5%	-6.0%	20.4%	-7.2
COc1cccc(/C=N/NC(=O)CO/N=C(\C)c2cccs2)c1OC	-6.7%	-8.4%	-12.6%	-3.4
O=C1CC(CSc2ccc(Cl)cc2)=NN1	0.2%	-0.5%	-11.0%	-12.7
CCCCOc1ccc(CN2CCSCC2)cc1	3.6%	-21.0%	3.5%	x
Cc1nn(C)c(C)c1NS(=O)(=O)c1ccc(N2CCCC2=O)cc1	0.7%	21.6%	1.0%	5.1
COc1ccc(N(CC(=O)NCCSCc2c(F)cccc2Cl)S(C)(=O)=O)cc1OC	0.0%	-1.7%	1.2%	2.4
O=C(CC(c1ccco1)C1CCCCC1=O)c1ccco1 (stereo not given)	2.2%	-2.5%	0.3%	-23.0
Cc1csc(NC(=O)[C@@H]2CCCN2C(=O)c2cccs2)n1	u	2.7%	0.9%	6.7
O=C(NCc1nc2ccccc2[nH]1)C1=C[C@H](c2ccccc2)C[C@H](OCCCCO)O1	-1.1%	5.3%	-10.6%	-3.9
O=C(CCCn1cc([N+](=O)[O-])cn1)Nc1cccnc1	3.4%	0.2%	0.9%	2.5
Cc1cc(C(F)(F)F)nc2c(Cl)c(C(C)(C)C)nn12	-0.2%	-0.7%	10.3%	-13.4
Cc1ccc(SC(=O)COc2ccccc2C)cc1	3.1%	10.1%	9.6%	-1.6
Cc1ccc(S(=O)(=O)N2CCC(=O)N(CCOCc3cccc(F)c3)CC2)cc1	-2.1%	-17.9%	-11.1%	-0.7
COc1cccc(CN(C(=O)c2ccco2)C(C(=O)NC2CCCC2)c2cccnc2)c1 (stereo not given)	-2.2%	-0.3%	-13.8%	0.5
CCC[C@H]1COCCS(=O)(=O)N1Cc1ccccc1	-7.2%	0.0%	51.5%	x
Cc1nn(C(=O)c2ccco2)c(C)c1Br	-1.2%	0.0%	1.6%	1.5
CCCn1c(=O)c2ccccc2n2c(SCN3C(=O)c4ccccc4C3=O)nnc12	x	-2.4%	x	-1.2
COc1ccc(C(=O)NNC(=S)NC(=O)c2ccc(F)cc2)cc1Br	1.5%	x	-0.3%	x
NC(=O)C1CCN(C(=O)c2ccc3c(c2)S(=O)(=O)c2ccccc2C3=O)CC1	-3.5%	-14.8%	-4.8%	x
CCc1ccc(NC(=O)c2ccccc2SC)cc1	-1.0%	-65.2%	-0.2%	-7.0
CCCC(=O)Nc1nn(C)c2nc3cc(C)ccc3cc12	x	-8.8%	x	6.2
O=c1c(N2CCOCC2)nsnc1N1CCOCC1	6.3%	0.0%	7.0%	-11.0
O=C(NCc1ccco1)c1ccc(C(=O)NCc2ccco2)cc1	-0.3%	x	0.8%	x
Cc1ccc(C)c(NC(=O)CN(C)C(C)C(=O)N2CCCC2)c1 (stereo not given)	1.9%	x	13.2%	x
CC(=O)NCCC(=O)N(C)CC1CCN(CCc2cccc(C(F)(F)F)c2)CC1	2.4%	-0.5%	10.7%	x
COC(=O)c1c(NC(=O)COC(=O)CNC(=O)c2ccco2)sc(C)c1C	-0.2%	-2.3%	9.1%	3.6
O=C(COC(=O)c1ccc[nH]c1=O)NCCC1=CCCCC1	-4.0%	x	15.3%	x
N/C(=N\O)c1cn(Cc2ccccc2Cl)c2ccccc12	0.1%	22.5%	13.6%	x
Cc1ccc(NS(=O)(=O)c2c(C)[nH]c(C)c2C(=O)N2CCCCC2)c(Cl)c1	-0.3%	-4.7%	3.6%	x
CCOC(=O)C1=C(COC(=O)C2CC(=O)N(c3ccc(C)cc3)C2)NC(=O)NC1C (stereo not given)	3.1%	x	18.6%	x
CCCCNc1nnc(SCC(=O)c2c(N)n(C3CC3)c(=O)[nH]c2=O)s1	0.7%	x	-9.1%	x
Cc1ccc(S(=O)(=O)NC2=NCN(CCN3CCOCC3)CN2)cc1	2.6%	-1.9%	-2.2%	8.9
CC1S/C(=N/N=C/c2ccco2)NC1=O (stereo not given)	-0.6%	-9.5%	-11.5%	-1.7
CCCC1C2CN(C(C)C)CC=C2C(C#N)=C(N)C1(C#N)C#N (stereo not given)	u	0.3%	u	27.6
O=C(O)CSc1nnc(COc2cccc3cccnc23)n1-c1cccc(C(F)(F)F)c1	-2.3%	0.2%	19.0%	-1.6
CCn1c(-c2cc(OC)c(OC)c(OC)c2)n[nH]c1=S	4.6%	-7.5%	24.1%	0.4
CCOc1cccc(/C=N/NC(=O)c2cc(C3CC3)[nH]n2)c1O	1.7%	19.7%	0.4%	x
COc1ccc(CNC(=O)CN(C(=O)CCC(=O)Nc2ccccn2)c2cccc(C)c2)cc1	-4.8%	-0.1%	16.3%	6.4
O=S(=O)(NC1=NCCCCC1)c1ccc2ccccc2c1	-1.0%	-27.0%	-9.4%	-3.6
COc1ccc(OC)c2[nH]c(=O)c(CCNC(=O)c3cccs3)cc12	-0.4%	-14.0%	8.9%	2.8
CCOC(=O)c1ccc(NC(=O)CSc2nc3sc(C(=O)O)c(C)c3c(=O)[nH]2)cc1	1.0%	-1.8%	-3.9%	1.6
CCOC(=O)c1ccc(N2C(=O)C3C(/C=C/c4ccccc4)OC4(C(=O)c5ccccc5C4=O)C3C2=O)cc1 (stereo not given)	-0.9%	0.8%	-7.6%	-7.5
O=c1[nH]c2ccccc2nc1/C=C/c1ccccc1	u	-60.7%	u	5.4
CC1(CC(=O)N/N=C/c2ccc(OCc3ccc(Cl)cc3Cl)cc2)OCCCO1	0.0%	-29.6%	-6.9%	-4.7
CCN(CC)S(=O)(=O)c1ccc(OC)c(NC(=O)CSc2cc(Cl)ccc2Cl)c1	-2.3%	-4.1%	2.4%	-14.4
CCCN(CCC)Cc1c(C(=O)N/N=C/c2ccncc2)nnn1-c1nonc1N	-0.5%	-15.1%	-13.5%	x
COc1ccc(CCNC(=O)C2CC(=O)N(c3ccc(C)cc3)C2)cc1 (stereo not given)	0.4%	-3.5%	13.4%	x
(next part)
SMILES	Rango complex inh	miR-21 FLuc	Rango release inh	GLA inh pH 4.5
COc1ccc(C(=O)N2CCCCC2)cc1S(=O)(=O)Nc1ccccc1	-2.8%	0.2%	-9.1%	7.7
CCCn1nc(C(=O)NCCN2CCOCC2)c2ccccc2c1=O	0.4%	-1.0%	-2.8%	-9.0
S=C(c1ccc2c(c1)OCO2)N1CCCCCC1	0.5%	-5.1%	-14.7%	-10.1
CC(C)=CCCC1=CCC(/C=N/NC(N)=O)C(C)C1 (stereo not given)	3.2%	-15.2%	18.8%	2.1
COc1ccc(N=Cc2cccc(C)c2O)cc1Cl	-4.7%	-1.8%	4.4%	-2.4
COc1ccc(C(=O)NC(NC(=O)c2ccc(OC)cc2)c2ccccc2F)cc1	3.4%	2.1%	2.9%	-2.8
CC(C)CC1=NN2C(=N)/C(=C\c3coc4ccccc4c3=O)C(=O)N=C2S1	u	-9.4%	u	-0.3
CC(C)c1cccc(C(C)C)c1NC(=O)Cn1c(=O)cnc2ccccc21	-2.4%	-6.6%	1.7%	-2.1
CC(C)(C)c1[nH]nc2c1C(Cc1ccccc1)C(C#N)=C(N)O2 (stereo not given)	-4.3%	3.5%	-8.6%	2.9
O=C(CSc1ncn[nH]1)N1CCOCC1	5.3%	0.2%	34.8%	2.4
CC(C)Oc1cccc(C(=O)NC(=S)Nc2cccc(C(F)(F)F)c2)c1	2.6%	0.3%	-7.4%	-5.3
